miR-21 FLuc – raises the signal of a miR-21 reporter; HeLa miR-21 FLuc reporter, luciferase, 48 h; Potency, µM (top dose mostly 38.3 µM), for inactives: at the top dose reporter change, positive = more light; 340,000 tested, under 10 active; AID 2288; active = well fitted rising curve with a large enough effect; inconclusive = small, poorly fitted or top-dose-only effect; inactive = no such curve, though single readings can be large or run the other way;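 note: % of control where 0% means no effect; miR-21 action dims this reporter so a rising signal means less miR-21 action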
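HeLa miR-21-FLuc reporter line, endogenous miR-21; 2000 cells/well in DMEM/10% FBS; compound titration up to ~40uM final, 48 h, 37 degree Celsius; luciferase detection reagent, 15 min lysis, CCD luminescence.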
Rango-impB inh – Rango-importin beta binding inhibition; AID 540263; Q14974; hit rate 0.031% among 340,000; Potency, µM (titrated, usually from 92.2 µM), for the others: at the top dose inhibition of complex formation; Rango CFP/YFP FRET sensor + importin beta, 45 min; active = rising FRET ratio curve, often small or poorly fitted; inconclusive = mostly compound fluorescence or quenching in the first reads; inactive = flat curves in all reads;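 note: potency is the fitted concentration of half-maximal effect; 0% = DMSO wells and 100% = buffer wells lacking importin beta; nearly all actives have a fitted effect of over 15% in size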
Target sequence (Q14974 whole entry, looked up): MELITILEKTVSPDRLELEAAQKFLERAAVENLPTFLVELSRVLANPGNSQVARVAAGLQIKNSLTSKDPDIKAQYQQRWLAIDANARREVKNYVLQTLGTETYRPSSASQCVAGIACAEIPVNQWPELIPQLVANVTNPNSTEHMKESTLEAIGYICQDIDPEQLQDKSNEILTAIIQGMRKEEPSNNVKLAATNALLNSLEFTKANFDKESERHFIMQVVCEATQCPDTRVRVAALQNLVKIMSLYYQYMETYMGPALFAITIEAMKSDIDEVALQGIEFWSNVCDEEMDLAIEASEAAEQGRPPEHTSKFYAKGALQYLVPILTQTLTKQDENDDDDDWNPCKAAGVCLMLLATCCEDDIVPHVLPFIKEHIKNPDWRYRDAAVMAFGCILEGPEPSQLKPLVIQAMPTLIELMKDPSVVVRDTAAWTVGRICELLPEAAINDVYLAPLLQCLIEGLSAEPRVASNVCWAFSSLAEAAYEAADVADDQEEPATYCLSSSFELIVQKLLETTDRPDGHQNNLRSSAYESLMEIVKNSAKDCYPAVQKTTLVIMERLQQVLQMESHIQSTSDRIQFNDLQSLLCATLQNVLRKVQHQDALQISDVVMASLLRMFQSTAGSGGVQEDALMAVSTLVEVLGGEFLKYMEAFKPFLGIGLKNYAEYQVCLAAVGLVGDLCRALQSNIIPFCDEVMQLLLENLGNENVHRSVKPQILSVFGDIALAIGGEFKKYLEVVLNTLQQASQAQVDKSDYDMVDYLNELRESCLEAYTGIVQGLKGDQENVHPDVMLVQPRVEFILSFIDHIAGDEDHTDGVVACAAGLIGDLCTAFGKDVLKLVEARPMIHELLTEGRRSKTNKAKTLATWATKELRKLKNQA
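Inhibition scored from the CFP 486 nm/YFP 530 nm FRET ratio 45 min after adding 0.125 microM importin beta to 50 nM Rango biosensor preincubated 5 min with compound (room temperature, PBS with DTT, Tween-20, BSA). No-importin wells as positive control.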
GLA inh pH 4.5 – inhibitors of human alpha-galactosidase A at pH 4.5. AID 1467. P06280. activity change, negative = inhibition, % at 105 µM. 230,000 tested, under 10 active. purified enzyme, 4-MU-alpha-Gal fluorescence, pH 4.5; inconclusive = small, poorly fitted or top-dose-only inhibition, or a rising curve; inactive = flat fitted curve, though single readings scatter; no compound was filed as active;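 note: 0% = full activity with enzyme and -100% = basal without enzyme; dose as in the result columns while the protocol names 77 µM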
Rango release inh – prevents RanGTP from dissociating the Rango-importin beta complex; O95149+P62826; Biochemical FRET Rango-importin beta, RanGTP-induced dissociation; Potency, µM (titrated, usually from 46.1 µM), inactives show at the top dose activity change, negative = inhibition; hit rate 0.071% among 340,000; active means falling FRET ratio curve, often poorly fitted, with flat reads before Ran was added; inconclusive means other falling curves, or compound fluorescence or quenching; inactive means flat or rising ratio curve;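 note: potency is the fitted concentration of half-maximal effect; % of control where 0% means no effect; nearly all actives have a fitted effect of over 45% in size; -100% = wells without RanGTP and RCC1; the record marks most hits as doubtful in a second field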
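Rango (0.1 uM)–importin beta (0.25 uM) complex; RanGTP-RCC1 trigger; 45 min RT; CFP/YFP FRET read.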
The depositor's hits bear a star; u = inconclusive; x = no result given; & = joins results of further samples.

SMILES | miR-21 FLuc | Rango-impB inh | GLA inh pH 4.5 | Rango release inh
COc1ccc(CNC(=O)C2CCC(CNS(=O)(=O)c3ccc(C)cc3)CC2)cc1 (stereo not given) | 6.4% | -1.4% | x | -7.3%
O=S(=O)(c1ccc(Cl)c(C(F)(F)F)c1)N1CCN(CC(O)COCC2CCCO2)CC1 (stereo not given) | -4.7% | -1.7% | -2.2 | -1.3%
Cc1cc(NC(=O)COc2ccc([N+](=O)[O-])cc2)no1 | x | -3.0% | x | 20.1%
CC(=O)Nc1ccc(S(=O)(=O)Nc2nnc(C(C)(C)C)s2)cc1 | -2.9% | 0.5% | 1.8 | u
COCCn1c(SCC(=O)N2CCc3ccccc3C2)nc2ccccc2c1=O | -4.1% | -1.2% | 4.4 | 10.6%
S=c1nc(-c2cccc(Br)c2)[nH][nH]1 | -7.7% | u | 2.3 | 5.1%
CS(=O)(=O)c1ccc(Cl)c(NC(=O)Cc2c(F)cccc2Cl)c1 | 0.1% | -1.0% | 8.5 | 10.6%
O=C(Nc1ccc2c(c1)COC2=O)c1ccc(Cl)c(Cl)c1 | -44.7% | -4.0% | x | 0.1%
CCO[C@@H]1OC(C(=O)NCc2nc3ccccc3[nH]2)=C[C@H](c2cn(C(C)=O)c3ccccc23)[C@H]1CCCO | 24.1% | -0.8% | 1.3 | 12.1%
CC(=O)C1=C(C)NC(SCC(=O)c2ccc(Cl)cc2Cl)=C(C#N)C1c1ccco1 (stereo not given) | 2.3% | u | -7.3 | u
C/C(=N\NC(=O)CSc1nnc(C)s1)c1ccc(Cl)cc1 | -4.4% | -3.3% | 7.8 | -8.4%
Cc1ccc(SCC(=O)OCC(=O)N(CC(C)C)c2c(N)n(Cc3ccccc3)c(=O)[nH]c2=O)cc1C | x | -0.7% | x | -10.2%
CC(C)c1ccc(NC(=O)c2cc(S(=O)(=O)NCC3COc4ccccc4O3)ccc2F)cc1 (stereo not given) | 16.7% | -2.9% | -19.3 | 6.7%
CN(C)CCCSc1nc2ccccc2s1 | -32.5% | -0.1% | 3.0 | 0.3%
COc1ccccc1OC[C@H](O)CO | -0.9% | 1.0% | 4.1 | 18.5%
Cc1ccc(CN(Cc2ccco2)C(=S)NCC(=O)O)cc1 | 0.2% | -1.0% | -10.3 | -0.4%
COc1cccc(NC(=O)CN(C)CC(=O)NCc2ccc3c(c2)OCO3)c1 | x | -2.6% | x | u
OC(Cc1cccnc1)(c1ccccc1)c1ccccc1 | x | -1.1% | x | 11.8%
CN(C)CCCNS(=O)(=O)c1cc(Cl)c(Cl)cc1Cl | -11.4% | 1.7% | -10.5 | 0.7%
CCOc1ccc(CCNC(=O)Cn2c(=O)oc3ccccc32)cc1OCC | 0.0% | 0.9% | 1.4 | 12.1%
CC1(C(=O)OCC(=O)NCc2ccc(Cl)cc2)CC1(Cl)Cl (stereo not given) | x | -0.8% | x | -7.8%
Cc1ccc(-c2cc(C(=O)N3CCN(c4ccc(O)cc4)CC3)c3ccccc3n2)cc1 | x | 5.2% | x | -0.3%
c1ccc(C(c2nnnn2C2CCCCC2)N2CCc3ccccc3C2)nc1 (stereo not given) | -7.0% | u | 5.7 | -18.5%
Cc1noc(C)c1S(=O)(=O)N(CC(=O)N1CCCCCC1)c1ccc(C(C)C)cc1 | -9.6% | -0.3% | 1.5 | -2.7%
CC1=C(C(=O)OCc2ccccc2)C(c2ccc(Br)cc2)NC(=O)N1CCCCCC(=O)O (stereo not given) | x | -2.3% | x | 1.6%
OCCN(Cc1ccccc1)Cc1ccccc1O | -2.1% | 0.3% | 7.1 | -0.8%
Cc1ccc(Cc2nnc(SCC(=O)Nc3ccccc3)n(N)c2=O)cc1 | x | 1.0% | x | 13.6%
Fc1ccccc1-c1nc2nc3ccccc3nc2n1CC1CCCO1 (stereo not given) | -3.3% | 0.9% | 8.6 | 11.2%
C/C(=N\NC(=O)c1ccc(O)cc1)c1ccc2c(c1)OCCO2 | x | 0.5% | x | 3.5%
CSc1ccccc1C(=O)NCCSc1ccccc1 | -30.2% | 0.3% | -2.2 | -1.4%
COC(=O)c1ccccc1S(=O)(=O)N1CCC(C(=O)OCC(=O)NCC(F)(F)F)CC1 | -0.8% | 0.7% | -7.7 | -7.4%
CC(C(=O)NCC1CCCO1)c1ccc([N+](=O)[O-])cc1 (stereo not given) | 3.2% | 1.4% | -0.8 | -9.3%
CCOc1ccc(C(=O)N[C@H](C(=O)Nc2cccc(S(=O)(=O)N3CCCCC3)c2)C(C)C)cc1 | -10.5% | -2.9% | -3.2 | 6.0%
Cc1ccccc1N1CCN(C2=NC(=O)/C(=C\c3cccs3)S2)CC1 | -26.9% | -3.4% | -7.7 | 1.9%
O=C(CCSCc1ccc(Cl)cc1)NC1CCCC1 | 2.2% | -3.4% | 1.0 | 20.3%
O=C(C(F)C(F)(F)F)N1CCN(c2ccccc2)CC1 (stereo not given) | 1.0% | 0.9% | 5.2 | -1.4%
CC1=CC(C)C(CN(CCC[N+](C)(C)C)C(=O)Nc2ccccc2)C(C)C1 (stereo not given) | -15.2% | -0.4% | -1.8 | -13.5%
COc1ccccc1CNC(=O)CSc1cc(=O)n(C)c2ccccc12 | 0.4%&-3.3% | -2.7% | -2.9 | 4.6%
Nc1ccc2c(S(=O)(=O)O)cccc2c1S(=O)(=O)O | x | -1.2% | x | 5.1%
COc1cccc(NC2CC(=O)N(CCc3ccccc3)C2=O)c1 (stereo not given) | -6.4% | u | -15.6 | -2.2%
O=C(c1sccc1-n1cccc1)N1CCCC1 | 0.1% | -2.7% | -10.0 | 3.4%
Cc1cc(C)n(CCOc2ccc(Br)cc2)n1 | -6.8% | -2.5% | x | -9.2%
Cc1nnc(SCCOc2ccccc2)s1 | -26.0% | -2.7% | 4.0 | -0.2%
O=C(OCC(=O)N1CCOCC1)c1ccc(Cl)cc1[N+](=O)[O-] | -17.2% | -0.2% | x | -0.2%
COc1ccc2c(c1)OC[C@H]1[C@H]2N2C(=O)CN(Cc3ccc(C)cc3)C(=O)[C@@]2(C)[C@H]1c1ccccc1 | x | 0.2% | x | -10.6%
COc1ccc(N2C(=O)CCC(C(=O)NCc3cccnc3)C2c2ccc(OC)c(OC)c2)cc1 (stereo not given) | -2.4% | 2.7% | 0.1 | -12.5%
CCCc1nnc(SCc2ccc(OCC)cc2)n1N | -0.8% | 2.0% | -3.5 | 14.4%
Cc1cc(C)c(S(=O)(=O)c2ccc(F)cc2C)c(=O)[nH]1 | 0.3% | 1.9% | x | -2.3%
COC(=O)CSc1nnc(CNc2ccc(Cl)cc2)n1Cc1ccccc1 | -2.9% | 1.4% | -1.4 | 2.3%
Cc1ccc(C(=O)Nc2cnc3ccccn3c2=O)cc1 | -37.5%&-22.5% | -3.2% | -4.1 | -18.0%

Some of the entries so far, with two lines to a compound:
Order of values – miR-21 FLuc | Rango-impB inh | GLA inh pH 4.5 | Rango release inh
> COc1ccc(N2C(=O)CCC(C(=O)NCc3cccnc3)C2c2ccc(OC)c(OC)c2)cc1 (stereo not given)
    -2.4% | 2.7% | 0.1 | -12.5%
> CCCc1nnc(SCc2ccc(OCC)cc2)n1N
    -0.8% | 2.0% | -3.5 | 14.4%
> Cc1cc(C)c(S(=O)(=O)c2ccc(F)cc2C)c(=O)[nH]1
    0.3% | 1.9% | x | -2.3%

New compounds follow:
SMILES | miR-21 FLuc | Rango-impB inh | GLA inh pH 4.5 | Rango release inh
CC1=CC(C/C(C)=C/COc2ccc3ccc(=O)oc3c2)OC1=O (stereo not given) | 6.8% | -4.2% | 8.2 | 7.2%
CC1CCC(NC(=O)C2CCN(c3nc4ccccc4s3)CC2)CC1 (stereo not given) | -5.1% | 1.8% | x | 3.6%
COC(CNC(=O)c1ccc(N2CCCC2=O)cc1)OC | -2.9% | 2.2% | -6.5 | -12.6%
COc1ccccc1CNC(=O)COC(=O)/C=C/c1ccc2ccccc2n1 | x | 0.4% | x | 14.0%
COc1ccc(C)cc1-n1nnnc1SCC(=O)NC1CCCC1 | x | 3.1% | x | 4.1%
COc1cc(/C=C/C(=O)O)cc(S(=O)(=O)Nc2ccc(S(=O)(=O)N3CCCCC3)cc2)c1OC | x | 0.6% | x | 46.9%
CCOC(=O)c1sc(/N=C/c2c(O)ccc3ccccc23)cc1C | -12.9% | u | -3.3 | -15.1%
CCOC(=O)CCc1c(C)nc2cc(-c3ccc(Cl)cc3)[nH]n2c1=O | -0.9% | -6.7% | -7.1 | -1.2%
O=C(Cn1cnc([N+](=O)[O-])n1)NCCO | 1.9% | 4.8% | 1.6 | -11.7%
COc1ccc(-c2cc(C)nc(SCC(=O)c3cccc([N+](=O)[O-])c3)n2)cc1 | -0.1% | -1.5% | -14.6 | 7.4%
O=C(NNC(=O)c1cccc2ccccc12)c1ccc(F)cc1 | x | -1.7% | x | -8.6%
CC1(C)N(OCc2ccccc2)C(=O)C(=O)N(OCc2ccccc2)C1(C)C | -1.6% | 0.5% | 2.6 | -3.9%
Cn1cc(C(=O)c2ccc(Cl)cc2Cl)cc1C(=O)NN | 3.2% | -2.3% | x | 5.4%
C#CCCc1cscc1/C=[N+](\[O-])c1ccc(C(=O)OCC)cc1 | x | -0.4% | x | -18.7%
CS(=O)(=O)c1ccc(NC(=O)c2ccccc2-n2cnnn2)cc1 | x | -2.0% | x | -6.4%
CC1CCCN(c2nc3ccccc3nc2C(C#N)S(=O)(=O)c2cccs2)C1 (stereo not given) | -3.1% | u | -0.2 | u
COc1ccc(-c2nnc3ccc(SCC(=O)N4CCN(c5ccccc5)CC4)nn23)cc1 | x | -3.5% | x | 28.5%
Cc1ccc2nc(-c3ccccn3)cc(C(=O)NCCc3ccc(F)cc3)c2c1 | 0.0% | -3.5% | x | 14.6%
Cc1cc(C(=O)NNC(=S)NCc2ccccc2)no1 | -1.6% | 3.0% | x | 11.3%
CN(C)S(=O)(=O)c1cccc(NC(=O)COC(=O)C2CCN(C(=O)c3ccc(F)cc3)CC2)c1 | x | -1.9% | x | -0.4%
C=CCNC(=O)c1ccc(OC2CCN(S(=O)(=O)N(C)C)CC2)cc1 | -44.3% | 0.2% | -0.2 | -5.2%
COc1ccc(Nc2nc(OC)nc(N3CCOCC3)n2)cc1 | -18.9% | -0.4% | 7.2 | -14.1%
Cc1ccc(S(=O)(=O)N2CCN(C)CC2)cc1-c1nnc2c3ccccc3c(C)nn12 | -30.2% | u | 1.4 | 5.4%
COc1ccc(NC(=O)c2cccnc2Cl)c(S(=O)(=O)N2CCOCC2)c1 | -5.9% | 2.1% | -3.8 | 9.6%
COc1ccc(CN2CCN(C(=O)CCC(=O)Nc3nnc(C(C)C)s3)CC2)cc1F | 11.3% | 0.8% | x | -9.9%
COc1ccc(/C(C)=N/NC(=O)CNC(=O)/C=C/c2ccccc2OC)cc1 | 0.9% | -0.3% | x | 6.1%
COc1cccc(CC(NC(C)=O)C(=O)NC2CCN(c3ncccc3[N+](=O)[O-])CC2)c1 (stereo not given) | -3.6% | x | -9.6 | x
NS(=O)(=O)c1ccc(NC(=O)COC(=O)c2cccc(S(=O)(=O)N3CCCC3)c2)cc1 | -1.4% | 0.0% | -1.0 | 0.4%
CCCSc1cc(=O)n(-c2ccc(F)cc2)nc1C(=O)OCC | -6.8% | 2.3% | 1.5 | u
Cc1ccc(NC(=O)C2CCN(C(=O)c3ccc(F)cc3)CC2)nc1 | x | -3.6% | x | 9.8%
CN(C(=O)c1cccc(NC(=O)Cc2cccc(NC(=O)C3CCN(C(=O)C4CCCC4)CC3)c2)c1)C1CCC1 | x | u | x | u
COc1ccc(/C=N/OC(=O)c2ccc(Cl)cc2)c(Cl)c1OC | -3.0% | 2.3% | 8.2 | 14.7%
Cc1nnc(NC(=O)CCn2cnc3ccccc3c2=O)s1 | 5.6% | -1.6% | -1.7 | -7.2%
Nc1ccccc1Sc1c[nH]c2ccccc12 | -31.7% | 0.3% | x | -9.5%
COc1ccccc1CCN1CCCC(CN(C)C(=O)CCC(=O)N(C)C)C1 (stereo not given) | -3.6% | -1.8% | x | 1.2%
O=c1[nH]c2ccc(NCc3ccccc3OCc3ccc(Cl)cc3)cc2[nH]1 | 0.1% | 2.9% | x | 2.3%
O=C(CC1Oc2ccc(Cl)cc2NC1=O)NC1CCCCCC1 (stereo not given) | -10.5% | -0.8% | 11.4 | -8.5%
Cc1nnc(SCC(=O)c2c[nH]c3ccccc23)n1C1CC1 | x | 0.5% | x | 23.0%

From PubChem

Some of the compounds tested; the hit share may differ from the screen's.
